# StopGo reporter – FMDV 2A StopGo reporter, luciferase signal | human cells with a luciferase reporter of 2A StopGo recoding; control for the full effect not named in the record | Potency, µM (doses to about 57.9 µM), for inactives: top-dose signal change, negative = less light | 410,000 tested, 1.2% active; active = well fitted falling curve with a large enough effect; inconclusive = small, poorly fitted or top-dose-only effect; inactive = no such curve, though single readings can be large or run the other way; tested in HEK293T cells; also: % is scaled to controls: 0 for no effect and ±100 for the full control effect; nearly all actives have a fitted effect of over 45% in size; luciferase light after 4 h
# Cruzain inh Det – blocks cruzain activity in presence of Triton detergent | P25779 | purified cruzain, Z-FR-AMC fluorescence, 0.01% Triton | Potency, µM, for inactives: max response, negative = inhibition, actives largely listed as inhibitors | 200,000 tested, 0.43% active; active = well fitted curve in the direction sought with a large enough effect; inconclusive = small, poorly fitted or top-dose-only effect, or another doubt; inactive = no such curve, though single readings can be large; an effect the other way counts as inactive or inconclusive;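 also: plate controls were neutral wells for no effect and buffer without enzyme for full effect; nearly all actives have a fitted effect of over 40% in size; top concentration of the series not given in the record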
# Target sequence (P25779 123-467 limits assumed): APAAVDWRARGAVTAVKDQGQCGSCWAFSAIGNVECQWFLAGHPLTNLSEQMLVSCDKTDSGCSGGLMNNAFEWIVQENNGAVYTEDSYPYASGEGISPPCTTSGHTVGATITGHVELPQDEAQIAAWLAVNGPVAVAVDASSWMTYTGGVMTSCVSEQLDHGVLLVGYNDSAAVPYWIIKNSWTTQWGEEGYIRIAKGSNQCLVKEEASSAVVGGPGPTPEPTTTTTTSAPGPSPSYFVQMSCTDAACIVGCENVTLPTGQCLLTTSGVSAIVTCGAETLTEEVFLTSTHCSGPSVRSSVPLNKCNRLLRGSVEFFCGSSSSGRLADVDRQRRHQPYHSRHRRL
#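 Enzyme 1.5 nM, Z-FR-AMC 2 uM, NaOAc 100 mM pH 5.5, DTT 5 mM, Triton X-100 0.01%; 15 min RT compound preincubation; kinetic ex360/em450, 60 s delta.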
# MARV entry inh – inhibitors of Marburg virus binding or cell entry | Potency, µM (top dose mostly 37.8 µM), for inactives: top-dose activity change, negative = inhibition, usual class: inhibitors | 300,000 tested, 1.8% active | Marburg virus pseudotyped entry inhibition, cell reporter; control for the full effect not named in the record; about a third of the inactives were read at about 46 µM; active = well fitted inhibition curve with a large enough effect; inconclusive = small, poorly fitted or top-dose-only effect, or effect the other way; inactive = flat fitted curve, though single readings scatter; tested in HEK293 cells; about a fifth of its hits are not listed in these tables; also: % is scaled to controls: 0 for no effect and ±100 for the full control effect; luciferase read-out
# Lassa entry inh – blocks Lassa virus binding to or entry into cells | 300,000 tested, 1.2% active | AID 540256 | Potency, µM (series often up to 37.9 µM), for the others: top-dose activity change, negative = inhibition, most hits filed as inhibitors | Lassa virus pseudotype entry inhibition, cell reporter; control for the full effect not named in the record; active means well fitted inhibition curve with a large enough effect; inconclusive means small, poorly fitted or top-dose-only effect, or effect the other way; inactive means flat fitted curve, though single readings scatter; tested in HEK293 cells; also: % is scaled to controls: 0 for no effect and ±100 for the full control effect; nearly all actives have a fitted effect of over 50% in size; luciferase read-out
# NS1 function inh – blocks influenza NS1 protein function; S. cerevisiae slowed by influenza A NS1, growth recovery by OD600; Potency, µM (titrated, usually from 46.1 µM), without a hit: top-dose activity, positive = more growth; 270,000 tested, 0.4% active; also: actives are rising curves; nearly all actives have a fitted effect of over 50% in size
#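 A cell-based growth assay was used: compounds that relieve NS1-induced slow growth of budding yeast raise OD600. Assay medium was yeast nitrogen base with ammonium sulphate and -URA supplement, pH 6.0, with 2% galactose.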
# SARS PLP yeast – inhibitors of SARS-CoV papain-like protease in yeast. S. cerevisiae expressing SARS-CoV PLpro, growth rescue; control for the full effect not named in the record. Potency, µM (doses to about 32.9 µM), inactives show top-dose activity, positive = growth rescue. 330,000 tested, 0.19% active. AID 485353; also: 0% is about no effect; nearly all actives have a fitted effect of over 55% in size; growth read by luminescence after 48 h
# RE007 growth inh – less growth of the S. pombe RE007 Vpr strain; S. pombe RE007 Vpr strain, BacTiter-Glo ATP luminescence, 24 h; control for the full effect not named in the record; Potency, µM (series often up to 92.2 µM), inactives show at the highest dose activity change, negative = less growth; 360,000 tested, 0.21% active; AID 651644; active = well fitted falling curve with a large enough effect; inconclusive = small, poorly fitted or top-dose-only effect; inactive = no such curve, though single readings can be large or run the other way;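 also: % is scaled to controls: 0 for no effect and ±100 for the full control effect; nearly all actives have a fitted effect of over 50% in size; the assay follows cell death caused by Vpr and the record does not say whether a fall means rescue or toxicity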
#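 Fission yeast strain RE007, carrying one chromosomally integrated HIV-1 vpr copy, was seeded at OD 0.01 in PMG+AL medium with 23 nL pinned compound. After 24 h at 30 °C and 99% humidity, viability was read by BacTiter-Glo luminescence.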
# Cruzain inh noDet – blocks cruzain activity in detergent-free assay; P25779; purified cruzain, Z-FR-AMC fluorescence, no detergent; Potency, µM, for inactives: max response, negative = inhibition, usual class: inhibitors; 200,000 tested, 2.3% active; active = well fitted curve in the direction sought with a large enough effect; inconclusive = small, poorly fitted or top-dose-only effect, or another doubt; inactive = no such curve, though single readings can be large; an effect the other way counts as inactive or inconclusive;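 also: plate controls were enzyme without inhibitor for no effect and buffer without enzyme for full effect; nearly all actives have a fitted effect of over 40% in size; top concentration of the series not given in the record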
#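 Detergent-free condition (0.00005% Triton X-100) in acetate buffer pH 5.5 with DTT. 1.5 nM enzyme and compound were pre-mixed 15 min, then 2 uM Z-FR-AMC substrate added; reaction progress from fluorescence change between first and third reads (60 s).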
# The depositor's hits bear a star; ? = inconclusive; . = not tested or not shown; & = joins results of further samples; [ ] = another dose, or the depositor's remark. Unless noted, calls follow the shape of the dose curve; as a rule, active means well fitted rising curve with a large enough effect; inconclusive means small, poorly fitted or top-dose-only effect; inactive means no such curve, though single readings can be large or run the other way. Potency is read from the fitted curve at half-maximal effect.
SMILES,StopGo reporter,Cruzain inh Det,MARV entry inh,Lassa entry inh,NS1 function inh,SARS PLP yeast,RE007 growth inh,Cruzain inh noDet
Cc1nn(-c2ccc([N+](=O)[O-])cc2)c(N)c1-c1ccccc1,3%,.,?,-18%,.,-10%,-4%,.
CCOC(=O)C(=CNc1ncccc1C)C(=O)OCC,.,-6.4%,1%,6%,-46%,5%,11%,?
C=CCn1c(-c2cccc(S(=O)(=O)N(CC)CC)c2)n[nH]c1=S,8%,.,16%[46.1 µM],?,.,0%,-2%,.
O=C(c1c(F)c(F)c(F)c(F)c1F)N1CCN(c2cccc(C(F)(F)F)c2)CC1,0%,-4.4%,?,?,-7%[9.22 µM],-11%,?,2%
O=C1CC(=O)N(c2ccccc2)N1c1ccccc1,-13%,-0.9%,11%,1%,29%,?,0%,7%
Cc1cc(=O)[nH]c(SCC(=O)c2ccc(F)c(C)c2)n1,20%,.,?,?,13%,-2%,5%,.
CC(C)CN(C(=O)CSc1nc2ccccc2c(=O)[nH]1)c1c(N)n(CC(C)C)c(=O)[nH]c1=O,-10%,.,-9%,1%,.,6%,-17%,.
O=C(NCc1ccccc1Cl)C1CCCN(S(=O)(=O)c2cccc3nonc23)C1 (stereo not drawn),-1%,.,-3%[46.1 µM],11%,-4%,-3%,7%,.
COc1ccc2[nH]c(C)c(CCNc3ccc(C(F)(F)F)cc3[N+](=O)[O-])c2c1,?,-7.1%,2.5µM*,-2%,?,-16%,-14%,-11%
CC(c1ccccc1)n1c(-c2ccc(C(C)(C)C)cc2)n[nH]c1=S (stereo not drawn),-18%,.,?,?,-50%,3%,9%,.
O=C(CSc1nnnn1-c1cccc(F)c1)Nc1nc2ccccc2s1,-16%,-1.5%,17%,-12%,0%,15%,6%,?
O=C(Nc1ccc(F)cc1)N1CCC(c2nc3c(nnn3Cc3cccc(Cl)c3)c(=O)[nH]2)CC1,-25%,-0.2%,?,?,16%,4%,13%,?
COc1ccc(N2CCN(c3oc(-c4ccccc4OC)nc3C#N)CC2)cc1,-13%,-5.7%,?,29%,?,3%,4%,4%
O=C(NCc1ccco1)C1CCC(N2C(=O)c3ccccc3C2=O)CC1 (stereo not drawn),-19%,-0.3%,7%,?,4%,-4%,19%,-7%
CC(C)(C)c1ccc(C(=O)NCCNC(=O)c2ccco2)cc1,20%,.,12%[46.1 µM],.,18%,1%,11%,.
CCN(/C(N)=N/c1nc(C)cc(C)n1)c1ccccc1,-1%,.,-4%[46.1 µM],-3%[46.1 µM],3%,3%,-8%,.
Cc1cc(N2CCC(C(=O)N(CC(C)C)CC(C)C)CC2)n2nc(C)c(-c3ccc(Cl)cc3)c2n1,-22%,3.7%,15%[46.1 µM],-13%[46.1 µM],.,.,.,4%
CCOc1ccccc1CN1CCNC(=O)C1CC(=O)NC1CCCCCC1 (stereo not drawn),10%,.,.,.,-3%,1%,-1%,.
CC(Nc1nc(-c2ccccc2)nc2ccccc12)c1ccccc1 (stereo not drawn),-22%,.,.,.,-5%,-23%,-8%,.
CCC1CCCCN1C(=O)c1cc(S(=O)(=O)N2CCOCC2)ccc1C (stereo not drawn),-10%,.,5%[46.1 µM],-23%[46.1 µM],.,1%,-2%,.
CCC(N=c1cc(-c2ccc(OC)cc2)oc2ccc(C)cc12)C(=O)O (stereo not drawn),27%,-15%,?,17%,-11%,-8%,-2%,-13%
c1ccc(OCc2noc(CN3CC[C@@H]4CCCC[C@H]4C3)n2)cc1,-16%,.,.,.,-10%,-3%,-21%,.
CCOc1ccc(-c2nc(SCC(=O)Nc3ccc4c(c3)OCO4)c(-c3ccc(F)cc3)[nH]2)cc1,-10%,-0.4%,-7%[46.1 µM],-6%[46.1 µM],.,.,.,-7%
COc1cc(/C=C(\C#N)c2ccccn2)ccc1OCC(=O)Nc1c(Cl)cccc1Cl,-9%,-2.5%,2%,?,10%,7%,-13%,-27%
COc1ccc(CC(=O)Nc2ccc(NC(=O)c3ccc(Br)cc3)cc2)cc1OC,-13%,.,15%,1%,-6%,2%,16%,.

# Next part
SMILES,StopGo reporter,Cruzain inh Det,MARV entry inh,Lassa entry inh,NS1 function inh,SARS PLP yeast,RE007 growth inh,Cruzain inh noDet
Cc1nnc(Sc2nc3c(c(=O)[nH]c(=O)n3C)n2CCc2ccccc2)s1,-21%,.,.,.,1%,-1%,-7%,.
O=C(COC(=O)c1ccccc1OCc1ccc(Cl)cc1)NCC1CCCO1 (stereo not drawn),2%,.,-19%[46.1 µM],-27%[46.1 µM],.,11%,1%,.
COCc1cnc(C)nc1N,-7%,.,-5%[46.1 µM],0%[46.1 µM],.,2%,36%,.
COc1ccc(NC(=O)CCn2nnc(-c3ccc(C)cc3)n2)cc1OC,-21%,-3.7%,4%,-3%,6%,-4%,-1%,-3%
COc1ccc(NC(=O)CN2c3cccc4cccc(c34)S2(=O)=O)cc1,-11%,-2.0%,-1%,1%,-8%,2%,22%,-15%
COc1ccc(NC(=O)CSc2nc3nc(C)cc(C)n3n2)cc1,27%&-10%,1.5%,-4%&-4%[46.1 µM],?,5%,-1%,-3%,-24%
O=C(NN/C(=N/S(=O)(=O)c1ccc(Cl)cc1)c1ccccc1)c1cccc(Cl)c1,38%[activator],.,-29%[46.1 µM],.,-30%,0%,?,.
COc1ccc(NC(=O)CN(C)C(=O)/C=C/c2cn(-c3ccccc3)nc2-c2ccc(C)cc2)cc1,-3%,.,?,-26%,.,1%,-23%,.
COc1cc(C(=O)NCCCN(C)C)ccc1OCC(=O)Nc1cccc(C(F)(F)F)c1,-15%,.,?,?,.,-5%,-5%,.
CCOc1ccc(CN(C)CC(=O)NCc2ccc(F)cc2)cc1,-15%,.,.,.,17%,-1%,2%,.
CCC(Cc1ccccc1)NC(=O)C1CC1 (stereo not drawn),-16%,.,4%[46.1 µM],-3%[46.1 µM],1%,-4%,2%,.
O=C(CSc1ccc2nnc(CCNC(=O)c3ccccc3)n2n1)NCc1ccc(F)cc1,-10%,.,-12%,?,13%,7%,8%,.
Cn1cccc1Cc1nnc(SCC(=O)Nc2ccc3c(c2)OCCO3)n1CCc1ccccc1,-5%,-3.2%,5%,.,15%,8%,9%,22%
CC(C)CN(C(=O)CSc1ccc2c(c1)OCCO2)c1c(N)n(CC(C)C)c(=O)[nH]c1=O,-18%,.,18%,1%,.,1%,33%,.
O=C1c2ccccc2C(=O)N1CSc1nnnn1-c1ccccc1,23%,6.1%,-9%,-7%,9%,-2%,-10%,-4%
CC12CCCCC1c1ccccc1C(=NCC(=O)O)N2 (stereo not drawn),13%,1.9%,-2%,14%,-5%,8%,0%[3.69 µM],2%
Cc1nc2ccc(NC(=O)COc3ccccc3[N+](=O)[O-])cc2s1,-2%,.,0%[46.1 µM],16%,.,-2%,-10%,.
CCOc1cc(CNCc2ccncc2)cc(Cl)c1OC,-19%,-1.4%,?,-2%,3%,-10%,3%,3%
NC(=O)CCCCC(=O)OCCCc1cccs1,40%[activator],3.7%,?,1%,4%,-7%,4%,-2%
Cc1[nH]c(=O)[nH]c(=O)c1NC(=O)c1sc2nc3c(C)cccc3cc2c1N,-20%,-11%,-8%,-4%,-2%,-2%,-4%,?
COc1cccc(C(=O)Nc2ccc(-c3cn4cccnc4n3)cc2)c1OC,7%,-19%,?,?,.,.,.,?
O=C(c1ccc(Cl)c(S(=O)(=O)N2CCCCCC2)c1)N1CCCCC1,7%,.,.,.,12%,5%,-3%,.
CCC(=O)N1c2ccc(S(=O)(=O)N3CCC(C)CC3)cc2CC1C (stereo not drawn),-1%,-4.2%,12%[46.1 µM],-15%[46.1 µM],.,.,.,-1%
COc1ccc(C(=O)N(CC(=O)Nc2sc(C)c(C)c2C(N)=O)C2CCCC2)cc1,-30%,.,?,-13%,-16%,-6%,22%,.
N#CCSc1ncccc1-c1nc2ccccc2[nH]1,-12%,-4.6%,7%,10%,-3%,-11%,?,2%

# The listing continues:
SMILES,StopGo reporter,Cruzain inh Det,MARV entry inh,Lassa entry inh,NS1 function inh,SARS PLP yeast,RE007 growth inh,Cruzain inh noDet
COC(=O)CCC(=O)N(CCN(C(=O)CCC(=O)OC)c1ccccc1)c1ccccc1,-10%,.,-14%[46.1 µM],-1%[46.1 µM],.,-4%,-6%,.
CC(C)c1ccc(OCC(=O)Nc2ccc(S(=O)(=O)Nc3ncccn3)cc2)cc1,11%,0.8%,.,-1%[46.1 µM],.,.,.,?
CC(C)c1ccccc1NC(=O)COC(=O)c1cc(=O)[nH]c(=O)[nH]1,13%,.,?,-5%,0%,3%,-2%,.
COc1ccccc1NS(=O)(=O)c1cccc(C(=O)NCC2(N(C)C)CCCCC2)c1,-23%,.,?,19%,.,-2%,-6%,.
Cc1ccc2oc(=O)c3cnn(CC(=O)N(CCN(C)C)Cc4ccco4)c3c2c1,-11%,-4.2%,.,.,-5%,2%,1%,-6%
O=C(NCC(c1ccc2c(c1)OCO2)N1CCOCC1)c1cccc(Cl)c1 (stereo not drawn),-5%,-4.1%,.,-5%[46.1 µM],.,.,.,2%
O=C(Nc1nnc(CCN2CCCCC2)s1)c1ccc(Br)cc1,-1%,.,12%[46.1 µM],0%,.,2%,14%,.
O=C(CCc1ccccc1)Nc1cc2c(cc1C(=O)O)OCCCO2,31%[activator],.,3%,5%,.,-1%,12%,.
Cc1ccc(-n2nnnc2-c2cnn(-c3ccc(F)cc3)c2C(F)(F)F)cc1,?,-8.2%,?,15µM*,-2%,11%,11%,0%
Cc1ccc(OC(=S)Nc2ccc(O)cc2)cc1,-22%,-16%,?,-4%,11%,-13%,-16%,-27%
Cc1ccc(Nc2c(-c3cccnc3)nc3ccc(Cl)cn23)cc1,?,-1.9%,1%[46.1 µM],-28%[46.1 µM],.,.,.,7%
CC(=O)NCCn1c(SCc2ccccc2F)nc2ccccc2c1=O,-28%,-2.1%,?,-1%,-8%,-3%,17%,?
COc1ccc(NC(=O)C2CCCN(S(=O)(=O)c3cccc4cccnc34)C2)cc1 (stereo not drawn),0%,-1.0%,1%,.,-45%,9%,-16%,11%

# Screening results as filed in PubChem.
